High-throughput results (PubChem)
Menin-MLL FL inh: qHTS Assay for Inhibitors Targeting the Menin-MLL Interaction in MLL Related Leukemias: Competition With Fluorescein Labeled MLL-derived Peptide | Fluorescence polarization, fluorescein-MLL peptide displacement from menin | FP activity change, % at 61.4 µM | 290,000 tested, under 10 active; inconclusive = falling polarisation curve, or a change in total fluorescence; inactive = total fluorescence flat and polarisation flat or rising; no compound was filed as active; the % refers to the polarisation; negative = inhibition;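 also: % of control where 0% means no effect; inhibitors lower the polarisation; unlabelled MLL peptide was the positive control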
Sfp PPTase inh: qHTS Assay for Inhibitors of Bacillus subtilis Sfp phosphopantetheinyl transferase (PPTase) | 4'-phosphopantetheinyl transferase ffp (Bacillus subtilis), Q9F4F7 | Biochemical Sfp PPTase activity, qHTS | Potency, µM, for the others: max response, negative = inhibition, actives largely listed as inhibitors | 310,000 compounds, 3.5% hits; active = well fitted inhibition curve with a large enough effect; inconclusive = small, poorly fitted or top-dose-only effect, or another doubt; inactive = no such curve, though single readings can be large or run the other way;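 also: the enzyme is Sfp with the accession as filed and its product quenches rhodamine fluorescence; potency is read from the fitted curve at half-maximal effect; 0% = enzyme reaction without inhibitor and -100% = no enzyme wells; top concentration of the series not given in the record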
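Buffer: 50 mM Hepes-Na pH 7.6, 10 mM MgCl2, 0.01% Nonidet P-40, 0.01% BSA. Enzyme 15 nM, pre-exposed to compound 15 min; substrates then added and fluorescence change tracked over 30 min.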
ClpP mod: qHTS Assay for Activators of ClpP; AID 651965, 2013; purified B. subtilis ClpP, FRET peptide cleavage, 20 min; Potency, µM (highest dose often 57.5 µM), for inactives: at the top dose activity change, negative = active; 340,000 compounds, 1.9% hits; active = well fitted falling curve with a large enough effect; inconclusive = small, poorly fitted or top-dose-only effect; inactive = no such curve, though single readings can be large or run the other way; also: potency is read from the fitted curve at half-maximal effect; the source files actives as falling curves though it sought activators and does not explain the sign; nearly all actives have a fitted effect of over 65% in size; many hits overshoot -100%
Target sequence (P80244 whole entry, looked up): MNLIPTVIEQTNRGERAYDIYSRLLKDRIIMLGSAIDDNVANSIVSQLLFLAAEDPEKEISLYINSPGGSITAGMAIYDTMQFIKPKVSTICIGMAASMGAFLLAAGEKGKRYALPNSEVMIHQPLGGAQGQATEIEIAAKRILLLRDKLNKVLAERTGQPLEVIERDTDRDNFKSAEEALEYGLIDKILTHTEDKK
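Purified B. subtilis ClpP, 10 microg/mL final in Tris/HCl pH8 with KCl, BSA, glycerol and Tween-20, cleaved an Abz/nitrotyrosine-quenched decapeptide. Fluorescence (ex 320, em 430) was read at 0 and 20 min at room temperature. Delta was normalized to 5.8 microM ADEP and DMSO/no-enzyme controls.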
gsp ag: qHTS for Agonist of gsp, the Etiologic Mutation Responsible for Fibrous Dysplasia/McCune-Albright Syndrome: qHTS; gsp mutant cells, cAMP HTRF, 30 min; control for the full effect not named in the record; Potency, µM (series often up to 76.9 µM), for inactives: top-dose activation (cAMP increase), usual class: activators; 340,000 compounds, 0.13% hits; active = well fitted activation curve with a large enough effect; inconclusive = small, poorly fitted or top-dose-only effect, or another doubt; inactive = no such curve, though single readings can be large or run the other way; cell line not stated here;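 also: phosphodiesterase inhibitor Ro 20-1724 added with compounds to block cAMP breakdown; potency is read from the fitted curve at half-maximal effect; nearly all actives have a fitted effect of over 60% in size; about a fifth of the inactives were tested at one dose only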
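Cells in DMEM/10% FBS with G418 were pretreated with compounds in DMSO plus […] (300 uM stock) for 30 min at 37C. cAMP was measured by HTRF (cAMP-d2 plus anti-cAMP antibody-K) after 30 min at room temperature.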
gsp antagonist: qHTS for Antagonists of gsp, the Etiologic Mutation Responsible for Fibrous Dysplasia/McCune-Albright Syndrome: qHTS; gsp-mutant cells, cAMP HTRF, 30 min; control for the full effect not named in the record; Potency, µM (highest dose often 76.9 µM), without a hit: at the top dose activity change, negative = inhibition, hits mostly inhibitors; 340,000 compounds, 0.4% hits; active = falling curve of any shape with a large fitted effect; inconclusive = falling curve, mostly with a smaller effect; inactive = flat or rising curve; cell line not stated here;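 also: intracellular cAMP measured with PDE inhibitor Ro 20-1724 present during compound exposure; potency is read from the fitted curve at half-maximal effect; % is scaled to controls: 0 for no effect and ±100 for the full control effect; nearly all actives have a fitted effect of over 65% in size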
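G418-selected cells were plated in DMEM/10% FBS for 16-24 h at 37C, then treated with compounds plus the PDE inhibitor […] (300 uM solution added) for 30 min at 37C. Intracellular cAMP was measured by HTRF after 30 min lysis at room temperature.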
CtBP-E1A blk: qHTS Assay for Inhibitors of the CtBP/E1A Interaction; AlphaScreen GST-E1A/His-CtBP binding, 1536-well; active compounds read low; control for the full effect not named in the record; activity change, % (concentration not given with the values); 340,000 compounds, 0.49% hits; AID 651724, 2012; in the data active means activity change below about -65%; inconclusive means about -30% to -65%; inactive means above about -30%; also: % is scaled to controls: 0 for no effect and ±100 for the full control effect
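AlphaScreen with 125 nM GST-E1A and 125 nM His-CtBP (5X stocks) in Tris pH 8.0, 300 mM NaCl, BSA, Tween 20, TCEP. Compounds preincubated 2 h at 37 deg C, then glutathione donor/nickel acceptor beads added for 1 h at 37 deg C in dark.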
TRPV1 potentiator: HTS Assay for Compounds that Act as Potentiators of the Vanilloid Receptor 1 | potentiation, % at 8.33 µM | 320,000 compounds, 0.02% hits | Transient receptor potential cation channel subfamily V member 1 (Homo sapiens), Q8NER1 | AID 540277, 2011 | TRPV1-expressing cells, Fluo-8 calcium influx, capsaicin EC20 potentiation; host cell line not named in the record; control for the full effect not named in the record; active means potentiation above 80%; inconclusive means 30% to 80%; inactive means below 30%; also: 0% is about no effect
Target sequence (Q8NER1 whole entry, looked up): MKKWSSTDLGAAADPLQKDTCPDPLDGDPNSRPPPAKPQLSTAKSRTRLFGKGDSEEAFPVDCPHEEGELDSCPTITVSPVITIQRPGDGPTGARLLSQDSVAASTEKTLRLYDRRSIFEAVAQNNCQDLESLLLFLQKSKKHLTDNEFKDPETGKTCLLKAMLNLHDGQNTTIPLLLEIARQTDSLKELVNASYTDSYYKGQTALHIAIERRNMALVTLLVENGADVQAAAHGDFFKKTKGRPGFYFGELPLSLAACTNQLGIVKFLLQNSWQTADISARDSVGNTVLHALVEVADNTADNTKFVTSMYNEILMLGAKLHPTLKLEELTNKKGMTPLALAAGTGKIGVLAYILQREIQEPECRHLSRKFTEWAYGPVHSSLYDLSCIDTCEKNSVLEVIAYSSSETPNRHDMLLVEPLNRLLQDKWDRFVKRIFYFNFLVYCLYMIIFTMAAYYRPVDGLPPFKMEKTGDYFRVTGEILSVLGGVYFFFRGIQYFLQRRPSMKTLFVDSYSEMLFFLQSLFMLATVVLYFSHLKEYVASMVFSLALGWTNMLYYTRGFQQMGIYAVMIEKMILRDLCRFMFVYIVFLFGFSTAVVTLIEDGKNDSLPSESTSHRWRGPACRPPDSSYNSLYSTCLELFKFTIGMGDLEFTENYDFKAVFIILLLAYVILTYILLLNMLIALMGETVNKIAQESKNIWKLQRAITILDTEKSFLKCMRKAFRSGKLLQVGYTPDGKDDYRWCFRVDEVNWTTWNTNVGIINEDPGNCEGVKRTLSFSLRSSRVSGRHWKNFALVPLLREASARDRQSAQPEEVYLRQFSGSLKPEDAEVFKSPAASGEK
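Fluo-8 calcium influx in TRPV1-expressing cells, kinetic read (ex 480/em 520 nm). Compound added and read 3 min for agonist activity, followed by capsaicin at EC20 final and 2 min further read for enhancement.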
* hit, by the source's call; ? = inconclusive; . = no result given; & = joins results of further samples; [ ] = another dose, or the depositor's remark.

no.	Molecule	Menin-MLL FL inh	Sfp PPTase inh	ClpP mod	gsp ag	gsp antagonist	CtBP-E1A blk	TRPV1 potentiator
1	O=C(Nc1ccc(N2CCCCC2)c(Cl)c1)c1cccnc1	3.5	3%	-3.3%	-16%	-5%	-2	-15
2	COC(=O)c1ccc(C2c3c(oc4ccc(F)cc4c3=O)C(=O)N2CCO)cc1 (stereo not given)	0.0	4%	-1.3%	-15%	0%[15.4 µM]	1	12
3	Cc1ccc2c(c1)N(Cc1cccc(Cl)c1)C(=O)c1cccnc1O2	5.4	-5%	0.7%	-20%	-23%	.	9
4	CCn1c2ccc(C)cc2c2nnc(SCCN3CCCCC3)nc21	0.0	9%	-3.1%	-2%[15.4 µM]	2%	-4	22
5	CS(=O)(=O)N1CCc2nc(-c3ccccc3)sc2C1	2.3	-8%	0.9%	8%[15.4 µM]	-11%	11	-2
6	NC(=S)NC1CC2C=CC1C2 (stereo not given)	-2.1	-12%	-0.3%	?	-8%	3	3
7	COc1cc(C2/C(=C(/O)c3ccc(OCC(C)C)cc3)C(=O)C(=O)N2CCN(C)C)ccc1O (stereo not given)	2.6	-8%	-3.5%	-1%	-5%	-6	-4
8	CCc1nc(SCc2cccnc2)c2c(=O)n(C)c(=O)n(C)c2n1	-1.7	-5%	-1.5%	?	-5%	2	9
9	CCOc1ccc2nc(SC(C)C(N)=O)[nH]c2c1 (stereo not given)	3.7	6%	2.5%	-7%	13%	4	0
10	CCSc1ncc(C)cc1[N+](=O)[O-]	1.9	-7%	-3.0%	0%	3%	0	6
11	O=C(NCCc1ccccc1)C1CCN(Cc2ccccc2F)CC1	6.8	1%	-4.1%	-36%[inhibitor]	10%	-4	-32
12	COc1ccc(/C(C)=N/NC(=O)CNC(=O)C2COc3ccccc3O2)c(OC)c1 (stereo not given)	-1.5	9%	.	22%	-1%	12	-6
13	Cc1ccc([N+](=O)[O-])cc1N=Nc1c(-c2ccc([N+](=O)[O-])cc2)[nH]n(C(N)=S)c1=O	7.3	?	-1.0%	-2%	13µM*	-11	3
14	CCCNC(=O)COc1coc(CN2CCN(C(=O)c3ccco3)CC2)cc1=O	.	.	-0.9%	-17%	11%	11	0
15	CS(=O)(=O)c1ccc(Cl)c(NC(=O)CSc2nncn2-c2ccccc2)c1	.	-3%	.	-6%[15.4 µM]	0%	21	13
16	O=C1OCC(CC2=C(O)C(=O)OC2)=C1O	.	.	.	-5%	2%	4	.
17	COc1ccc(CCN2C(=O)CC(N3CCN(c4ccccn4)CC3)C2=O)cc1OC (stereo not given)	-1.2	11%	1.3%	14%	5%	1	-5
18	Cc1ccc(S(=O)(=O)NC2c3cccc4cccc(c34)C2Sc2n[nH]c(N)n2)cc1 (stereo not given)	0.8	14%	1.4%	3%	-18%	-2	13
19	COc1cccc(NS(=O)(=O)c2ccc3c(c2)NC(=O)CC(=O)N3)c1	.	8%	2.8%	?	15%	0	9
20	Cc1c(Cl)cccc1NC(=O)N1CCN(C(=O)c2ccco2)CC1	.	16%	.	-2%[15.4 µM]	8%	4	13

In another format: results already given.
19. COc1cccc(NS(=O)(=O)c2ccc3c(c2)NC(=O)CC(=O)N3)c1
  Menin-MLL FL inh = .; Sfp PPTase inh = 8%; ClpP mod = 2.8%; gsp ag = ?; gsp antagonist = 15%; CtBP-E1A blk = 0; TRPV1 potentiator = 9

20. Cc1c(Cl)cccc1NC(=O)N1CCN(C(=O)c2ccco2)CC1
  Menin-MLL FL inh = .; Sfp PPTase inh = 16%; ClpP mod = .; gsp ag = -2%[15.4 µM]; gsp antagonist = 8%; CtBP-E1A blk = 4; TRPV1 potentiator = 13

Looked up above:
Sfp PPTase inh result of compound 9 reads 6%
CtBP-E1A blk result of compound 20 reads 4
gsp ag result of compound 15 reads -6%[15.4 µM]
TRPV1 potentiator result of compound 18 reads 13

(more compounds)
no.	Molecule	Menin-MLL FL inh	Sfp PPTase inh	ClpP mod	gsp ag	gsp antagonist	CtBP-E1A blk	TRPV1 potentiator
21	O=C(OCc1ccc2c(c1)OCO2)c1cccc(S(=O)(=O)N2CCCCC2)c1	-2.3	4%	-0.5%	-39%[inhibitor]	-6%	1	-8
22	CC1CCCN(C(=O)C2CCN(S(=O)(=O)c3cccc4cccnc34)CC2)C1 (stereo not given)	2.5	1%	-2.0%	-29%	-9%	-12	.
23	CCN(CC)C(=O)C(=O)c1cc(C)n(-c2ccc(F)cc2)c1C	0.6	5%	.	-14%[15.4 µM]	14%	-4	-7
24	CCOC(=O)N1CCC(NC(=O)C(CC(C)C)NC(=O)C2CCCCC2)CC1 (stereo not given)	-0.9	2%	1.1%	-8%	10%	7	3
25	CCOC(=O)C1=C(c2ccc(O)cc2)NC(=O)NC1C (stereo not given)	.	.	.	23%[15.4 µM]	4%	2	.
26	NC(=O)CN1CCOCCOCCN(CC(N)=O)CCOCCOCC1	-2.4	7%	-1.5%	5%	0%	0	-28
27	O=C(Cc1ccccc1)NS(=O)(=O)c1ccc(N=NN2CCOCC2)cc1	-5.1	8%	.	7%[15.4 µM]	-5%	7	-15
28	CCOC(=O)/C(C#N)=C1/C=Cc2ccccc2N1CC	-1.2	11%	-0.7%	-14%	-15%	-9	-22
29	NC(=O)C1CCN(c2ccc(S(=O)(=O)N3CCCCC3)cn2)CC1	-1.7	12%	.	-1%[15.4 µM]	0%	3	10
30	c1cn(C23CC4CC(CC(C4)C2)C3)cn1	-0.7	17%	1.6%	-1%	-3%	1	6
31	COc1ccc(OC)c(C(c2c(O)nc(SC)[nH]c2=O)c2c(O)nc(SC)[nH]c2=O)c1	-3.0	?	0.7%	1%[15.4 µM]	4%	0	?
32	O=C(C[n+]1cc(-c2ccccc2)n2c1CCC2)Nc1nc(-c2ccccc2)cs1	-13	56µM*	0.5%	-21%	-2%	-14	2
33	Clc1cccc(Cl)c1C1Nc2cccc3cccc(c23)N1	-0.1	?	.	33%	-24%	-7	-1
34	CCN(CC)C(=O)[C@H]1C[C@H](CC(=O)NCCC2=CCCCC2)C(=O)N2CCc3c([nH]c4ccc(Cl)cc34)[C@]12C	.	.	-2.0%	.	-23%	-8	.
35	CC1NC(C)(C)Cc2c1ccc1ccccc21 (stereo not given)	-5.7	18%	1.8%	24%	0%	4	2
36	COc1ccc(C(=O)Nc2ccc(C(F)(F)F)n(C)c2=O)cc1	4.0	10%	3.9%	-1%	-5%	.	-4
37	CCOc1ccc(C(=O)Nc2cc(C)c3c(=O)oc4ccccc4c3n2)cc1	7.4	-16%	-24%	?	-3%	-2	15
38	C=CCC[C@H](Cc1ccc(F)cc1)C(=O)OC[C@H](Cc1c[nH]c2ccccc12)NC(=O)[C@H](CC=C)CC(=O)N[C@H](CO)Cc1ccccc1	.	.	-1.5%	.	0%	1	.
39	O=C(/C=N/O)Nc1ccc(F)cc1	?	19%	-4.4%	4%	4%	-1	4
40	CC(Sc1nncn1C)C(=O)Nc1cc(C(F)(F)F)ccc1N1CCOCC1 (stereo not given)	-7.6	9%	.	29%	1%	3	-9

gsp antagonist: entries above that show a hit
cpd | compound | Menin-MLL FL inh | Sfp PPTase inh | gsp ag | gsp antagonist | CtBP-E1A blk
13 | Cc1ccc([N+](=O)[O-])cc1N=Nc1c(-c2ccc([N+](=O)[O-])cc2)[nH]n(C(N)=S)c1=O | 7.3 | ? | -2% | 13µM* | -11

(next part)
no.	Molecule	Menin-MLL FL inh	Sfp PPTase inh	ClpP mod	gsp ag	gsp antagonist	CtBP-E1A blk	TRPV1 potentiator
41	CN(C)S(=O)(=O)n1cc(/C=C(\NC(=O)c2ccccc2F)C(=O)NCCCn2ccnc2)c2ccccc21	0.3	8%	-3.4%&-0.3%	-48%[inhibitor]	-3%	-5	-11
42	COc1ccc(C(=O)N=c2sc3c(C)ccc(OC)c3n2C)cc1	4.7	4%	3.8%	-27%	17%	5	4
43	CCn1nc(C(=O)NNC(=O)c2ccc(OC(F)F)cc2)c2ccccc2c1=O	.	.	0.8%	16%	-3%	5	.
44	Cc1ccc(NC(=O)C2CCCN2S(=O)(=O)c2ccc(-c3ccc(=O)[nH]n3)s2)c(C)c1 (stereo not given)	-0.7	4%	-11%	0%	-4%	-15	-5
45	C=CCNC(=O)COc1ccccc1C#N	3.9	-5%	1.9%	25%	-2%	7	-2
46	O=C(COc1ccc([N+](=O)[O-])cc1)Nc1ccncc1	0.0	0%	.	18%[15.4 µM]	-5%	8	-14
47	COc1cc(C(=O)NCCN2CCN(C(=O)c3cc(OC)c(OC)c(OC)c3)CC2)cc(OC)c1OC	.	11%	-0.7%	-35%[inhibitor]	20%	?	1
48	O=C(NC1CC2CCCC(C1)N2S(=O)(=O)c1ccccc1)c1ccco1 (stereo not given)	0.4	7%	-0.2%	-2%	4%	16	-34

Full records as entered above.
COc1cc(C(=O)NCCN2CCN(C(=O)c3cc(OC)c(OC)c(OC)c3)CC2)cc(OC)c1OC in the list: Menin-MLL FL inh = .; Sfp PPTase inh = 11%; ClpP mod = -0.7%; gsp ag = -35%[inhibitor]; gsp antagonist = 20%; CtBP-E1A blk = ?; TRPV1 potentiator = 1
Cc1ccc(NC(=O)C2CCCN2S(=O)(=O)c2ccc(-c3ccc(=O)[nH]n3)s2)c(C)c1 (stereo not given) in the list: Menin-MLL FL inh = -0.7; Sfp PPTase inh = 4%; ClpP mod = -11%; gsp ag = 0%; gsp antagonist = -4%; CtBP-E1A blk = -15; TRPV1 potentiator = -5
